# Screening results as filed in PubChem.
# HCMV NEC inh = inhibitors of HCMV UL50-UL53 nuclear egress complex interaction. HTRF UL50-UL53 interaction, normalized percent inhibition. inhibition, % (concentration not given with the values). 0.15% of 190,000 active;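 active = both replicates at 50% or more, plus weaker picks with an unusually low signal ratio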;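 note: stock transfer was 100 nL into about 20 µL; 0% = negative control wells and 100% = wells with untagged competitor protein; inactives centre near -12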
# * hit, by the source's call; & = joins results of further samples.
SMILES,HCMV NEC inh
CC(=O)Nc1ccc(OC(=O)Cc2ccccc2)cc1,-22
CCS(=O)(=O)c1ccc(O)c(N2C(=O)c3cccc4cccc(c34)C2=O)c1,-72
CN(C(=O)c1ccc(Cl)cc1)C1(C)CCS(=O)(=O)C1 (centres undefined),0
CCOC(=O)c1cccc(C(=O)Oc2ccc3cc(Br)ccc3c2)n1,-20
Nc1nc2ccccc2c(=O)[nH]1,-19
Cc1ccc(-n2ncc3c(NCC4CCCO4)ncnc32)c(C)c1 (centres undefined),-5
O=C1CN(C(=O)c2ccccc2)C(c2ccc(F)cc2)c2cc(F)ccc2N1 (centres undefined),-6
Cc1oc2c(C)c(O)c(CN(C)C)cc2c(=O)c1Oc1ccccc1F,-4
CC1SC(C)C(=O)N(CC(=O)Nc2ccccc2)C1=O (centres undefined),-4
CN(c1ncccc1CNc1nc(Nc2ccc3c(c2)CC(=O)N3)ncc1C(F)(F)F)S(C)(=O)=O,14&-6&-4&-1&-1&-7&-3&-11&-19&-13
OCCCNc1nccc(-c2cc(Nc3cccc(Cl)c3)ncn2)n1,-4
CC(C)C1C(=O)NC(CCCN=C(N)N)C(=O)NCC(=O)NC(CC(=O)O)C(=O)NC(Cc2ccccc2)C(=O)N1C (centres undefined),-12
COC(=O)c1ccc(NS(=O)(=O)c2cccc3cccnc23)cc1,-1
O=C(CC(NCCC1=CCCCC1)C(=O)O)Nc1ccccc1 (centres undefined),1
Cc1cc(NC(=O)Cc2ccccc2)ccc1O,-3
CCNC1CN(CCCOC)S(=O)(=O)c2sc(S(N)(=O)=O)cc21 (centres undefined),-13
O=C(c1cc(=O)c2ccccc2o1)N1CCc2ccccc21,-27
Cc1ccc(NC(=O)CC(NCc2ccco2)C(=O)O)cc1C (centres undefined),6
CO[C@H]1/C=C/O[C@@]2(C)Oc3c(C)c(O)c4c(O)c(c(C=NN5CCN(C6CCCC6)CC5)c(O)c4c3C2=O)NC(=O)/C(C)=C\C=C\[C@H](C)[C@H](O)[C@@H](C)[C@@H](O)[C@@H](C)[C@H](OC(C)=O)[C@@H]1C,-161
CCc1nc(C)ccc1OCC(=O)N1CCc2[nH]nc(C3CC3)c2C1,8
N#Cc1ccc(C(=O)Cn2cc(C(F)(F)F)ccc2=O)cc1,-22
Nc1nc2ccccc2cc1S(=O)(=O)c1ccccc1,-11
COc1ccc(Nc2ncnc3nc[nH]c23)cc1,-8
CC(=O)Nc1nnc(-c2ccc3c(c2)CCCC3)o1,0
CCOc1cc(/C=C2/SC(=S)N(c3ccc4c(c3)OCO4)C2=O)ccc1O,-1
Cc1cc(=O)[nH]c(SCC(=O)c2ccccc2)n1,-21
Cc1c(C(=O)NN2CCCCC2)nn(-c2ccc(Cl)cc2Cl)c1-c1ccc(Cl)cc1,-9
COC(=O)c1sc2ccccc2c1NC(=O)Cc1ccccc1,-24
Cc1nc(-c2cn[nH]c2-c2ccc(O)c(C)c2O)cs1,-23
COc1ccc(-c2csc(NC(=O)C3COc4ccccc4O3)n2)cc1 (centres undefined),-2

# Reprinted at random: 8 entries already listed, in no set order.
SMILES,HCMV NEC inh
Cc1nc(-c2cn[nH]c2-c2ccc(O)c(C)c2O)cs1,-23
COc1ccc(-c2csc(NC(=O)C3COc4ccccc4O3)n2)cc1 (centres undefined),-2
CCc1nc(C)ccc1OCC(=O)N1CCc2[nH]nc(C3CC3)c2C1,8
CCOc1cc(/C=C2/SC(=S)N(c3ccc4c(c3)OCO4)C2=O)ccc1O,-1
COc1ccc(Nc2ncnc3nc[nH]c23)cc1,-8
Cc1ccc(NC(=O)CC(NCc2ccco2)C(=O)O)cc1C (centres undefined),6
CO[C@H]1/C=C/O[C@@]2(C)Oc3c(C)c(O)c4c(O)c(c(C=NN5CCN(C6CCCC6)CC5)c(O)c4c3C2=O)NC(=O)/C(C)=C\C=C\[C@H](C)[C@H](O)[C@@H](C)[C@@H](O)[C@@H](C)[C@H](OC(C)=O)[C@@H]1C,-161
Cc1cc(=O)[nH]c(SCC(=O)c2ccccc2)n1,-21

# In a second layout: 4 of the compounds above.
Molecule | HCMV NEC inh
CC(=O)Nc1nnc(-c2ccc3c(c2)CCCC3)o1 | 0
Cc1ccc(NC(=O)CC(NCc2ccco2)C(=O)O)cc1C (centres undefined) | 6
N#Cc1ccc(C(=O)Cn2cc(C(F)(F)F)ccc2=O)cc1 | -22
COc1ccc(Nc2ncnc3nc[nH]c23)cc1 | -8

# Next section:
SMILES,HCMV NEC inh
CSCc1ccc(C(=O)Nc2cccc3cccnc23)o1,-6
COc1cc(C2CC(=O)N(C)c3ccccc3S2)cc(OC)c1OC (centres undefined),-16
CC(C)[C@H]1c2ccc(F)cc2CC[C@@]1(CCN(C)CCCc1nc2ccccc2[nH]1)OC(=O)C1CC1,12
CC(C)CN(C)Cc1cn(C2CCN(C3CCCCCC3)CC2)nn1,-5
O=C1NC(=Nc2ccc(O)cc2)S/C1=C\c1ccc(Cl)cc1Cl,-16
COc1ccc(CN(C)C(=O)Nc2nc(C)n(C)n2)c2cccnc12,-37&-37
CCOc1ccc2nc3n(c2c1)CC(O)CS3 (centres undefined),-6
c1ccc(CSc2ncnc3ccccc23)cc1,9
CC(C)n1cc(-c2cc(C(=O)N(C)Cc3cccnc3)c3cc(F)ccc3n2)cn1,34&34
CCC(=O)Nc1sccc1C#N,-13
CCN(CC)Cc1cc(Cl)c2cccnc2c1O,-36
N#Cc1nc(-c2ccccc2F)oc1NCCN1CCOCC1,9
N#CC(=Cc1ccc(O)c(O)c1)C(=O)NCc1ccccc1,-60
Cc1cc(C)n(C(=O)c2ccc(S(=O)(=O)N3CCCC3)cc2)n1,-8
O=C(CCc1ccccc1)Nc1ccc2sccc2c1,-8
O=C(O)c1ccccc1N1C(=O)C2C3C=CC(C3)C2C1=O (centres undefined),-13
CC(C)(C(=O)NCC(F)(F)C(F)(F)F)C(=O)NC1C(=O)Nc2ccccc2-c2ccccc21 (centres undefined),0
N#CC1=C(SCC(N)=O)NC2=C(C(=O)CCC2)C1c1cccc(Cl)c1Cl (centres undefined),-25
N#C/C(=C/C1=Cc2ccccc2OC1)c1nc2ccccc2s1,-5
COc1cc(OC)c(NC(=O)Nc2cc(C)on2)cc1Cl,-3&-22
O=C(C1=C(O)c2ccccc2C1=O)c1cccs1,-16
COc1ccc(NC(=O)C(C)NC(=O)C(c2ccccc2)c2ccccc2)cc1 (centres undefined),-14
N#CC(C#N)=C(N)c1ccccc1,-12
O=C(O)c1cccnc1SCCc1ccccc1,0
CCN1C(=O)/C(=C2\SC(=S)NC2=O)c2cc(Br)ccc21,2
COc1ccc2c(C)cc(SCc3c(C)noc3C)nc2c1,10
N#Cc1nc(-c2ccccc2F)oc1NCCc1ccccc1,14
COc1nccnc1-c1ccc2c(c1)OCO2,-14
O=C(NCc1cccnc1)c1ccc(Br)cc1,3
O=C(CS(=O)(=O)c1c[nH]c2ccccc12)NC1CCCCC1,-16
CCc1cc2c(=O)c(-c3cscn3)coc2cc1OC,-20
CCN1C(=O)c2cccc3c(S(=O)(=O)NCCO)ccc1c23,-88
Cc1cccc(NC(=S)N2CCCCC2)c1,-12
CCS(=O)(=O)N1CCN=C1SCc1ccc(Cl)cc1Cl,-1
c1ccc(Cn2ccnc2CNc2ncnc3nc[nH]c23)cc1,-3
O=C(Nc1ccccc1)c1cc2ccccc2oc1=O,-16
OCCNc1ncnc2nc[nH]c12,-17
Cc1csc(-c2c(C)oc3cc(O)ccc3c2=O)n1,1
O=C(CC1Sc2ccccc2NC1=O)Nc1ccccc1 (centres undefined),-23
COc1cc(/C=C/CN2CC(=O)N(C(C)C)CC(OCc3noc(C)n3)C2)ccc1O (centres undefined),-8
CC(=O)N[C@@H](CC(=O)N[C@H](CCC(=O)O)C(=O)O)C(=O)O,-8
CCc1cccc(NS(=O)(=O)c2ccc3c(c2)C(C)(C)C(=O)N3C)c1,13
Cc1cc(C)c(S(=O)(=O)N2CCSC2C)c(C)c1 (centres undefined),0
O=C1C(=Cc2ccc(O)cc2)C(=O)c2ccccc21,-11
Cc1cc(NCCN2CCOCC2)nc2ccccc12,-12
Cc1cccc(-c2nnc(NC(=O)Cc3ccccc3)s2)c1,-7
Cc1nc2ccccc2nc1SCC(=O)O,-30
N#Cc1ccsc1NC(=O)CCSc1ccccc1,-12
CN1C(=O)/C(=C2\SC(=S)N(c3ccc(O)cc3)C2=O)c2ccccc21,-10
O=C(Nc1ccccc1-c1nc2ccccc2[nH]1)c1cccs1,-9
Cc1ccnn1CCC(=O)N1CCc2c(cc(Cc3ccccc3F)c(=O)n2Cc2cccnc2)C1,-7
Cc1ccc(C(C)C)cc1S(=O)(=O)NCc1ccccn1,-3
C=C1N(c2ccccc2)C(=O)OC1(C)C,7&-6
OCCN(CCO)c1ncnc2sc3c(c12)CCCC3,4
C=C1C(CO)C(O)CC1n1cnc2c(=O)[nH]c(N)nc21 (centres undefined),-14
CCC1(CC)CC1C(=O)N1CCCCC1CCn1ccnc1C (centres undefined),-11
O=C(CC1CCCCCC1)N1CCC(Cn2cc(C3CC3)nn2)CC1,-15
C=CCNc1nc(-c2cccs2)c(CC(=O)O)s1,-18
CC1O[C@@H](OC2C(Oc3cc(O)c(C(=O)CCc4ccc(O)cc4)c(O)c3)OC(CO)C(O)C2O)C(O)C(O)C1O (some centres undefined),-15
OCCCc1nc2ccc(Cc3ccc4nc(CCCO)[nH]c4c3)cc2[nH]1,-3

# (cont.)
SMILES,HCMV NEC inh
c1csc(Cn2c(-c3cccs3)nc3ccccc32)c1,-6
O=C(NCC1CCCO1)/C(=C\C=C/c1ccccc1)NC(=O)c1ccccc1 (centres undefined),-28
COc1ccc(/C=C/C(=O)Nc2nc3ccccc3s2)cc1,-19
CCOC(=O)C1CCCN(CC(O)COc2ccccc2Br)C1 (centres undefined),-2
CCn1ccnc1CN(C)C(=O)c1cc(-c2cnc(N)nc2)nc2c(C)cccc12,-7&-7
COc1ccccc1C(C#N)c1cccc(Cl)n1 (centres undefined),0
Cn1c(CCNC(=O)c2ccccc2)nc2ccccc21,2
Cc1nc2ccc(NC(=O)C3=COCCO3)cc2s1,-10
CC(C)=CCC/C(C)=C/CNCCCc1ccncc1,-22
CS(=O)(=O)c1ccc2nc(NC(=O)CCSc3ccccc3)sc2c1,-28
CSc1nnc(Cn2c(=O)sc3ccccc32)n1C,-13
Cc1nc(-n2cc(-c3ccccc3)nn2)nc2c1CCCC2,5
O=C1NC(=Nc2ccccc2)SC1Cc1cccc(C(F)(F)F)c1 (centres undefined),-24
COc1ccc(OC)c(S(=O)(=O)Nc2cnc3ccccc3c2)c1,-13
CC(C)N(C(=O)CSc1nc2ccccc2[nH]1)c1ccccc1,-4
CCOC(=O)COc1cc2oc(=O)cc(-c3ccccc3)c2cc1Cl,3
ONC(=NCc1ccccc1)c1cccc(Cl)c1,-5
O=C(OCCN1CCCCC1)c1c[nH]c2ccccc12,4
CCCc1[nH]nc2c1C(C1CC=CCC1)C(C#N)=C(N)O2 (centres undefined),-4
CCCC1([C@@H](O)C/C=C/[C@H]2[C@H](O)CC(=O)[C@@H]2CCCCCCC(=O)O)CCC1,-17&-17
COc1ccc(C(=O)C(C)OC(=O)c2cc(C)nc3ccccc23)cc1 (centres undefined),0
OC1CCC(Nc2nc(-c3ccccc3)nc3[nH]ccc23)CC1 (centres undefined),-8
O=C(c1ccc(Br)cc1)n1c(=O)oc2ccccc21,-22
N#CC1=C(SCC(=O)NC2CCCCC2)NC(=O)CC1c1ccccc1F (centres undefined),-2
C=CCn1c(CCC)nc2ccccc21,-18
O=C(O)c1c(F)c(F)c(F)c(F)c1C(=O)O,4
CCN(CC)C(=O)c1c2c(nc3ccccc13)CCCC2,-7
OC(CNCC(O)[C@H]1CCc2cc(F)ccc2O1)[C@@H]1CCc2cc(F)ccc2O1 (some centres undefined),-3
N[C@@H](C(=O)O)[C@@H](OCc1ccccc1)C(=O)O (racemic),-8
CCOC(=O)C1CCN(Cc2cc(Cl)c3cccnc3c2O)CC1,0
O=C(CSc1nnnn1-c1ccccc1)N1CCCC1,0
CCCCc1cn(C2CCN(C(=O)C3CC3(CC)CC)CC2)nn1 (centres undefined),-1
Cc1nsc(NC(=O)N2CCCC(C)(O)C2)n1 (centres undefined),40&40
N=c1oc2cc(O)ccc2cc1C(=O)Nc1ccc(F)cc1,-44
NC1=NC(=O)/C(=C/c2ccc(O)cc2)S1,-15&-15
COc1cc(Br)c(Nc2nc(-c3c(C)nc4ncccn34)cs2)c(Br)c1,2&1
CC(=O)Nc1nc(-c2ccc3c(c2)OCCO3)cs1,-6
Nc1nc(-c2ccc(O)cc2)cs1,-25
CCn1cc(SCC(=O)NCc2ccco2)c2ccccc21,-4
Cc1cc(NC(=O)Cn2ccc(-c3ccsc3)n2)n(-c2ccccn2)n1,-12
COc1ccc(NC(=O)c2ccc(-c3ccc(-c4noc(C)n4)cc3C)cc2)cc1OCCN(C)C,12
CCC(CO)n1cnc2sc3c(c2c1=O)CCCCC3 (centres undefined),6
C/C(N)=N\S(=O)(=O)c1ccc(Cl)cc1,7
NC(=O)CSc1nc2ccccc2c(=O)[nH]1,-8
CC(C)(C)c1ccc(SC(=O)c2ccc(OCC(F)(F)F)nc2)cc1,12
Cc1onc(-c2ccccc2Cl)c1C(=O)NCC1COc2ccccc2O1 (centres undefined),-6
CC(=CCC1=C(C)C(=O)c2ccccc2C1=O)CCCC(C)CCCC(C)CCCC(C)C (centres undefined),-42

# As entered above.
# HCMV NEC inh result of Cc1onc(-c2ccccc2Cl)c1C(=O)NCC1COc2ccccc2O1 (centres undefined) : -6
# HCMV NEC inh result of CC(=CCC1=C(C)C(=O)c2ccccc2C1=O)CCCC(C)CCCC(C)CCCC(C)C (centres undefined) : -42
# HCMV NEC inh result of Nc1nc(-c2ccc(O)cc2)cs1 : -25
# HCMV NEC inh result of CC(=O)Nc1nc(-c2ccc3c(c2)OCCO3)cs1 : -6
# HCMV NEC inh result of CC(C)(C)c1ccc(SC(=O)c2ccc(OCC(F)(F)F)nc2)cc1 : 12
# HCMV NEC inh result of Cc1cc(NC(=O)Cn2ccc(-c3ccsc3)n2)n(-c2ccccn2)n1 : -12
# HCMV NEC inh result of COc1cc(Br)c(Nc2nc(-c3c(C)nc4ncccn34)cs2)c(Br)c1 : 2&1
# HCMV NEC inh result of COc1ccc(NC(=O)c2ccc(-c3ccc(-c4noc(C)n4)cc3C)cc2)cc1OCCN(C)C : 12

# The list is partial (hit frequency here may not be typical).
